Assay outcomes (PubChem BioAssay)
Bead autofluor = flagged as autofluorescent in microsphere protease counterscreen. fluorescence intensity (test concentration not listed). 3.1% of 360,000 active. compound autofluorescence counterscreen, microsphere flow cytometry; stronger effect = higher value;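 active means at least 3 SD above the mean of all compounds, about 16000 in these data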;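 further: 100 nL of 1 mM stock went into each well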
PrP UTR inh = suppresses PrP 5' UTR mRNA reporter expression. inhibition, % (test concentration not listed). cell-based PrP 5' UTR mRNA reporter, plate reader. AID 488862. 0.35% of 340,000 active;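 active means every replicate at 50% or more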;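 further: 0 = median of the neutral control wells; tested in H4 reporter cells; numbers are from one replicate; inactives centre near -14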
BJeLR lethal = kills HRASV12-expressing BJeLR cells | BJeLR (HRASV12) viability, CellTiter-Glo ATP luminescence, 48 h; reference of the scale not given here | inhibition, % (test concentration not listed) | 0.17% of 300,000 active;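 active means replicate mean above 50%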;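 further: 50 nL library stock added to about 25 µL; numbers are from one replicate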
Starred values were filed as active, the others as inactive; . = no result given. These rows are one share of the data, so the mix of outcomes need not match the whole.

Results follow in this order: BJeLR lethal	Bead autofluor	PrP UTR inh
> CCOc1cc(/C=N\Nc2ncc(F)c(N3CCOCC3)n2)ccc1Oc1nc(Cl)ncc1F
→ 3	.	-17
> O=C(CNC(=O)c1ccc([N+](=O)[O-])cc1)N/N=C\c1ccc(OC(=O)c2ccccc2)cc1
→ 9	.	-15
> Nc1nnn(CC(=O)N/N=C/c2cn[nH]c2-c2ccccc2)n1
→ 4	.	-14
> COc1ccc(/C=N\NC(=O)C2COc3ccccc3O2)cc1O (stereo unspecified)
→ 7	.	-32
> Cc1cc(=O)[nH]c(N/N=C/c2c(C)nn(-c3ccccc3)c2Cl)n1
→ 2	.	-11
> Fc1cnc(N/N=C/c2ccc(-c3ccc(Br)cc3)o2)nc1N1CCOCC1
→ -1	.	-12
> Cc1onc(-c2cccc(Cl)c2Cl)c1C(=O)O/N=C(\N)c1ccc([N+](=O)[O-])o1
→ -4	.	-22
> COc1ccc(/C=N/Nc2cc(C)nc(N3CCOCC3)n2)c(OC)c1
→ -3	.	-11
> CC(C)(C)c1ccc2c(c1)OC(C(=O)N/N=C\c1ccc(-c3cccc(C(=O)O)c3)o1)CO2 (stereo unspecified)
→ 18	.	-8
> Cc1ccc(NC(=O)O/N=C/c2c(C)nn(C(C)(C)C)c2C)cc1Cl
→ 3	.	88*
> Cc1c([N+](=O)[O-])c(C(=O)Sc2ccc(Br)cc2)nn1C
→ 2	.	4
> N/C(CS(=O)(=O)c1ccc(F)cc1)=N\O
→ 0	.	-15
> CCOC(=O)NNc1ccc2nonc2c1[N+](=O)[O-]
→ -3	.	-21
> COc1cc(CN2CCN(C(O)(c3ccccc3)c3ccccc3)CC2)cc(OC)c1OC
→ 5	.	22
> O=C1C(=O)N(c2nccs2)C(c2ccccc2)/C1=C(\O)c1ccc2c(c1)OCCO2 (stereo unspecified)
→ 11	.	11
> CC(=C/c1ccccc1)/C=N/N1CCN(Cc2ccc(C)cc2)CC1
→ 5	.	-8
> COc1ccccc1N1CCN(/N=C/C=C/c2ccccc2[N+](=O)[O-])CC1
→ -10	.	-20
> COc1ccccc1-c1coc2c(CN3CCC(C)CC3)c(O)ccc2c1=O
→ -2	.	-16
> CCCc1cnc(NCCNCC(O)COc2ccc(Cl)c(Cl)c2)nc1 (stereo unspecified)
→ -1	.	-13
> Cc1ccc(S(=O)(=O)n2nccc2-c2c(-c3ccc(Cl)cc3)noc2C)cc1
→ 8	.	6
> C/C(=N\Nc1ccc(Cl)c(C(=O)O)c1)c1ccccn1
→ -5	.	-15
> COc1ccc(Nc2cc(C)nc(NCc3ccccc3)n2)cc1
→ 2	.	-17
> CCc1ccc(OCc2cccc(C(=O)N/N=C\c3cnn(C)c3C)c2)cc1
→ -3	.	-20
> Cc1ccc(NC(=O)N(CCC(=O)O)Cc2ccccc2)cc1
→ 0	.	-17
> CCOC(=O)c1ccccc1OCc1cc(/C=N/NC(=O)c2ccncc2)ccc1OC
→ -5	.	-6
> COc1ccc2nc(N3C(=O)CNC3=S)sc2c1
→ 2	.	-56
> Cc1ccccc1/C=N/NC(=O)c1cccnc1
→ -9	.	21
> COc1cc(/C=C2/C(=O)NN(c3cccc(Cl)c3)C2=O)cc(OC)c1O
→ -7	.	-15
> CCC(=O)Nc1ccccc1N1CCN(c2ccc(F)cc2)CC1
→ -7	.	-2
> COc1ccc(CN(Cc2cccn2C)S(=O)(=O)c2ccc(F)cc2)cc1
→ 4	.	-17
> CCOC(=O)c1cc(C)nc(Sc2ccc(C)cc2)c1C#N
→ -3	.	-8
> CCc1nnc(NC(=O)c2nc(S(=O)(=O)Cc3ccc(C)cc3)ncc2Cl)s1
→ 9	.	-22
> C/C(Cl)=C\Cn1c(N2CCCC2)nc2c1c(=O)[nH]c(=O)n2C
→ -4	.	1
> COc1ccc2[nH]cc(/C=N/NS(=O)(=O)c3ccc(C)cc3)c2c1
→ 2	.	4
> CCNC(=O)c1c(N)sc2c1CCCCC2
→ -4	.	37
> NCCNC[C@@H]1COC2(CCCCCCCCCCC2)O1
→ 0	.	-7
> Cn1cccc1CC(=O)N/N=C/c1ccc(Cl)c([N+](=O)[O-])c1
→ 0	.	-8
> CC1=C(C(=O)OC(C)C)C(c2ccc(Cl)cc2)n2c(s/c(=C\c3ccc(OCC(=O)O)cc3)c2=O)=N1 (stereo unspecified)
→ 7	.	-12
> COc1ccc(C)cc1NC(=O)c1ccc(CN2CCc3ccccc3C2)cc1
→ 3	.	4
> CN(C)CCNc1nc2sc3c(c2c(=O)n1-c1ccccc1)CCCCC3
→ 2	.	-16
> COc1cc(/C=N/NC(=O)c2ccccn2)ccc1OC(=O)c1cccs1
→ -4	.	-13
> CCOC(=O)c1ccc(-[n+]2c(-c3ccccc3)cc(-c3ccccc3)cc2-c2ccccc2)cc1
→ 20	.	-15
> Cc1ccc(S(=O)(=O)CCSc2n[nH]c(=O)n2-c2ccc3c(c2)OCCO3)cc1
→ -3	.	-4
> N#CCC(=O)N/N=C/c1cn(Cc2ccc3ccccc3c2)c2ccccc12
→ 9	.	-14
> COc1cc(/C=N/NC(=O)c2cc(-c3cccc(OC(C)C)c3)nc3ccccc23)ccc1O
→ 4	.	-8
> CN1CCN(S(=O)(=O)c2ccc(NC(=O)c3ccccc3Cl)cc2)CC1
→ -3	.	-8
> Cc1c(C)c2ccc(OCC(=O)Nc3ccccn3)c(C)c2oc1=O
→ 29	.	93*
> Cc1nn(-c2ccccc2)nc1C(=O)c1c(C)[nH]n(-c2ccccc2)c1=O
→ -6	.	1
> O=C1ON=C(c2ccc(Cl)cc2)/C1=C/c1ccc(O)cc1
→ -7	.	-41
> Cc1[nH]c2ccccc2c1/C=N/NC(=O)c1cc(-c2ccccc2)n[nH]1
→ 3	.	-27
> COc1ccc(CCNc2ncnc3c2[nH]c2cc(OC)c(OC)cc23)cc1OC
→ 12	.	-15
> NC(=S)N/N=C/c1coc2ccc(Br)cc2c1=O
→ -5	.	-15
> CS(=O)(=O)N(CC(=O)N/N=C/c1cccc2c1OCCO2)c1ccccc1Br
→ 1	.	-8
> O=C(O)C1CCc2sc3[nH]c(=S)n(-c4ccccc4)c(=O)c3c21 (stereo unspecified)
→ -3	.	1
> CCCC1=[N+](CC(=O)c2ccc(Br)cc2)CCn2cccc21
→ 1	.	1
> Cc1ccc(-c2csc3ncn(CC#N)c(=O)c23)cc1C
→ 1	.	-8
> Cc1ccc(/C=N/NC(=O)c2ccco2)cc1
→ -7	.	-59
> CC1Cc2cc(/C(O)=C3/C(=O)C(=O)N(CCN4CCOCC4)C3c3ccc(C(C)C)cc3)ccc2O1 (stereo unspecified)
→ -1	.	-30
> C/C(=N/NS(=O)(=O)c1ccc(CC(C)C)cc1)c1ccncc1
→ 9	.	-5
> O=S(=O)(CCc1ccccc1)/N=C/c1cccs1
→ -1	.	-34

Structures above containing two or more sulfur atoms (5):
Results follow in this order: BJeLR lethal	Bead autofluor	PrP UTR inh
> COc1ccc2nc(N3C(=O)CNC3=S)sc2c1
→ 2	.	-56
> CCc1nnc(NC(=O)c2nc(S(=O)(=O)Cc3ccc(C)cc3)ncc2Cl)s1
→ 9	.	-22
> Cc1ccc(S(=O)(=O)CCSc2n[nH]c(=O)n2-c2ccc3c(c2)OCCO3)cc1
→ -3	.	-4
> O=C(O)C1CCc2sc3[nH]c(=S)n(-c4ccccc4)c(=O)c3c21 (stereo unspecified)
→ -3	.	1
> O=S(=O)(CCc1ccccc1)/N=C/c1cccs1
→ -1	.	-34

Other records
Results follow in this order: BJeLR lethal	Bead autofluor	PrP UTR inh
> Cc1ccc(C(=O)N/N=C\c2ccc([N+](=O)[O-])o2)cn1
→ -1	.	-31
> Cc1cccc(N2CN=c3s/c(=C\c4ccccn4)c(=O)n3C2)c1
→ -13	.	-18
> Cc1onc(NC(=O)c2ccc([N+](=O)[O-])o2)c1Br
→ -1	.	-36
> Nc1nc(NCc2ccco2)nc(Nc2ccccc2)c1[N+](=O)[O-]
→ -6	.	-6
> CC1(C)c2ccccc2-n2c1cc1oc(=O)cc(O)c1c2=O
→ -4	.	-6
> C=C1SC(Nc2c(C)cc(C)cc2C)=NC12CCCCC2
→ -16	.	-30
> CC(C)c1ccc(S(=O)(=O)N2CCN(CC(=O)c3ccc(O)c(O)c3)CC2)cc1
→ 6	.	-20
> COc1ccc(/C=N/NC(=O)CSc2ccccn2)cc1OC
→ 4	.	-6
> COc1ccc2c(c1)O[C@@H](c1cccc(C(F)(F)F)c1)[C@H](O)C2=O
→ -3	.	-20
> CNC(=O)c1cccc2nc3ccccc3nc12
→ 4	.	-6
> O=C(N/N=C/C1=Cc2ccccc2OC1)c1ccncc1
→ -9	.	-15
> Cc1ccc2cc(NC(=O)Cc3ccccc3)ccc2n1
→ 4	.	-92
> Cc1c(C)n(O)c2ccc3nonc3c12
→ 0	.	-3
> Cc1c(C(=O)NCc2ccoc2)oc2ccc3c(c12)C(=O)CC(C)(C)O3
→ 6	.	-85
> N#C/C(=C\c1c(F)cccc1Cl)c1nn(-c2ccccc2)c(-n2cccc2)c1C#N
→ -11	.	-55
> CCC(C)(C)C1CCc2[nH]nc(C(=O)N/N=C(\C)c3ccco3)c2C1 (stereo unspecified)
→ -3	.	-21
> Cc1ccc(NC(=O)c2sc3ncnc(N4CCN(c5ccccn5)CC4)c3c2C)c(C)c1
→ 1	.	-20
> c1cncc(-c2nc(NCc3ccc4c(c3)OCO4)c3ccccc3n2)c1
→ 7	.	17
> CCc1cc2c3c(c1)C(C)CC(C)(C)N3C(=O)/C2=C1\SC(=O)NC1=O (stereo unspecified)
→ 12	.	-12
> CO/N=C/c1ccc(Sc2ccc(C)cc2)c([N+](=O)[O-])c1
→ -10	.	-69
> O=C(CN1CCCCCCC1)N/N=C/c1ccc([N+](=O)[O-])o1
→ 3	.	-16
> N#C/C(=N\Nc1ccc(Cl)cc1)C(=O)c1ccsc1
→ 11	.	-31
> O=C(NCc1ccccc1F)Nc1nnc([C@H]2C[C@H](O)[C@@H](CO)O2)s1
→ .	3676	.
> COc1ccccc1CNc1nc(NC(C)C)nc2ccsc12
→ .	3450	.
> Cc1cn([C@H]2C[C@H](O)[C@@H](CNC=O)O2)c(=O)[nH]c1=O
→ .	3096	.
> CC1(C(=O)NS(=O)(=O)c2ccccc2Cl)CCN1C(=O)C1(c2ccc(Cl)cc2)CCC1 (stereo unspecified)
→ .	3993	.
> N#Cc1ccc(-c2nc3ccc(Br)cn3c2Cc2ccsc2)cc1
→ .	6143	.
> O=C(CCCN1CCN(c2ccccc2)CC1)c1ccc(F)cc1
→ .	3648	.
> COc1ccc(C(C)=O)cc1CC1(C)C(=O)Nc2ccc(-c3ccccc3OC)cc21 (stereo unspecified)
→ .	3181	.
> O=S1(=O)CC(N2CCCCC2)CN1Cc1cn(Cc2ccccc2)nn1 (stereo unspecified)
→ .	4327	.
> Cc1nc(C(F)(F)F)ccc1C(=O)N1CCCC(C(=O)O)CC1 (stereo unspecified)
→ .	3763	.
> COc1ccc(C(=O)NC(C(=O)N2CCN(C/C=C/c3ccccc3)CC2)C(C)C)cc1 (stereo unspecified)
→ .	3086	.
> CCOC1CCCc2oc(-c3ccc(OC)cc3)c(C(=O)NCCCCO)c21 (stereo unspecified)
→ .	4359	.
> Cc1ccc(S(=O)(=O)CCC(=O)OCC(=O)NCc2ccc(F)cc2)cc1
→ .	4259	.
> CCc1nc2ccc(C(=O)NCCOc3ccc(OC)cc3)cn2c1N(C=O)Cc1ccc(OC)cc1
→ .	3512	.
> CC(=O)c1cccc(NC(=O)C2(C)Cc3c(-c4cccc(C(F)(F)F)c4)ccnc3O2)c1 (stereo unspecified)
→ .	3989	.
> CC1(C(=O)Nc2ccc(Cl)c(Cl)c2)CCN1C(=O)CCC1CCCC1 (stereo unspecified)
→ .	3576	.
> Cc1ccccc1Cn1c(C)c(C(=O)NCC(C)C)sc1=O
→ .	3267	.
> CC1=C(C(=O)N(C)C)CC(CC(=O)NCc2cccc3ccccc23)C(=O)N1Cc1ccccc1 (stereo unspecified)
→ .	3781	.
> CC(=O)Nc1ccc(Nc2nccc(C)n2)cc1
→ .	6185	.
> COCCNC(=O)C(=O)NCC1CCCN1S(=O)(=O)c1cccs1 (stereo unspecified)
→ .	4311	.
> COC(=O)C1=C/CCCN(C(c2ccccc2)c2ccccc2)/C=C\1C(=O)OC
→ .	3716	.
> C[C@H](CO)N1C[C@H](C)[C@H](CN(C)S(=O)(=O)c2cccc(F)c2)Oc2ncc(-c3cccc(C(=O)N(C)C)c3)cc2C1=O
→ .	3703	.
> C=CCN(Cc1ccc(Br)s1)C(=O)c1ccc(OCc2c(C)noc2C)cc1
→ .	3796	.
> CCc1nc2c(OCc3cc(Cl)cc(Cl)c3)cccn2c1N(C)C(=O)CC(C)C
→ .	3507	.
> COc1ccc(S(=O)(=O)N2CCCC(C(=O)NCc3cccnc3)C2)cc1C (stereo unspecified)
→ .	3803	.
> COc1ccc(NC(=O)c2sc(=O)n(Cc3ccc4ccccc4c3)c2C)cc1OC
→ .	4845	.
> FC(F)(F)c1ccccc1Cc1c(-c2ccc(Cl)cc2)nc2c3ccccc3ccn12
→ .	5383	.
> CCCNC(=O)c1cc(C2CCCN(C(=O)c3ccc4c(c3)CCO4)C2)on1 (stereo unspecified)
→ .	3958	.
> CC1(C(=O)Nc2nccs2)CCN1C(=O)C1(c2ccccc2)CC1 (stereo unspecified)
→ .	3485	.
> COc1ccccc1CNc1nc(Nc2ccccc2Cl)c2sccc2n1
→ .	3446	.
> O=C(NCC(F)(F)F)c1[nH]c(C(F)(F)F)nc1-c1ccccc1
→ .	5749	.
> COc1cccc(C(N)c2nc(-c3csc4ccccc34)cs2)c1 (stereo unspecified)
→ .	3804	.
> Cc1ccc(C(=Cc2ccc([N+](=O)[O-])cc2)C(=O)O)cc1
→ .	3423	.
